High-throughput results: PubChem BioAssay, National Center for Advancing Translational Sciences (NCATS)
miR-21 reporter: miR-21 reporter, rising signal | Potency, µM (titrated, usually from 38.3 µM), for inactives: at the top dose reporter change, positive = more light | HeLa miR-21 FLuc reporter, luciferase, 48 h | AID 2288 | 340,000 tested, under 10 active; active = well fitted rising curve with a large enough effect; inconclusive = small, poorly fitted or top-dose-only effect; inactive = no such curve, though single readings can be large or run the other way;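 also: % of control where 0% means no effect; miR-21 action dims this reporter so a rising signal means less miR-21 action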
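HeLa cells stably expressing CMV-driven firefly luciferase with a downstream miR-21 binding sequence, endogenously expressing miR-21, were treated with titrations (up to about 40uM final) for 48 hours at 37 degree Celsius. Luciferase luminescence was read after lysis.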
An asterisk follows results filed as active; ? = inconclusive. Some of the compounds tested; count on the stated rates, not on these rows.

SMILES | miR-21 reporter
Cc1ccc(N(CC(=O)NCC(C)c2ccccc2)S(=O)(=O)N(C)C)cc1 (stereo unspecified) | 0.9%
COc1cccc(-c2noc(COc3ccccc3Cl)n2)c1 | -70.0%
CN(C)c1ccc(CNC(=O)CCn2cccn2)cc1 | -6.8%
CC1=C(C(=O)Nc2ccc(C)cc2Cl)C2(CCCCC2)OC1=O | -1.4%
Cc1ccc(NC(=O)Cn2cc(S(=O)(=O)N3CCN(c4ccccc4F)CC3)c3ccccc3c2=O)cc1F | -8.3%
Cc1ccc(-c2nnc(SCc3cccc(C#N)c3)o2)cc1 | -35.2%
O=C(Nc1ccc(F)c(Cl)c1)N1CCC2(CC1)Oc1ccccc1C(=O)N2Cc1ccccc1F | -0.4%
O=C(Nc1ccc(Cl)cc1)N1CCN(c2ccc3nnc(-c4ccccc4)n3n2)CC1 | -8.0%
O=C(CC1C(=O)N(c2ccc(F)cc2)C(=O)N1Cc1ccc2c(c1)OCO2)Nc1ccc(F)cc1 (stereo unspecified) | 2.1%
CCCCN(C)CCNC(=O)C1CCCN(S(=O)(=O)c2ccc3c(c2)oc(=O)n3C)C1 (stereo unspecified) | -1.8%
COc1ccc(CC(=O)NC2CC(=O)N(c3ccc4c(c3)OCCO4)C2)cc1 (stereo unspecified) | -6.0%
O=C(Cn1cc(C(=O)c2ccncc2)c(=O)c2cc(F)ccc21)Nc1ccc(Cl)cc1 | 9.2%
CCc1cccc(C)c1NC(=O)C(NS(=O)(=O)c1ccc2c(c1)CCC(=O)N2)c1ccccc1 (stereo unspecified) | 2.7%
Cc1cc(C)c(CN2C(=O)c3ccccc3S(=O)(=O)c3ccc(C(=O)OCC4CCCO4)cc32)c(C)c1 (stereo unspecified) | 1.1%
O=C(NCCCN1CCN(c2ccc(F)cc2)CC1)Nc1ccccc1Cl | 20.4%
CC(=O)N1CCCc2cc(S(=O)(=O)N3CCC(C(=O)NCc4ccc(F)cc4)CC3)ccc21 | 4.6%
O=C(CCCn1c(=O)[nH]c2ccccc2c1=O)N1CCN(c2ccccc2)CC1 | 7.2%
Cc1c(C(=O)N2CCOCC2)oc2c1-c1nn(CC(=O)NCc3cccc(F)c3)cc1CC2 | 21.8%
COc1ccc(CCNc2oc(COc3ccc(Cl)cc3)nc2C#N)cc1OC | 24.5%
Cc1cccc(C(=O)Nc2ccc3nc(SCC(=O)N4CCc5ccccc54)sc3c2)c1 | -3.8%
CC1CCN(S(=O)(=O)c2ccc3c(ccn3CC(=O)NCc3ccccc3F)c2)CC1 | 1.9%
O=C1c2[nH]nc(-c3ccccc3O)c2C(c2cccc(OCc3ccccc3)c2)N1CCCO (stereo unspecified) | 21.5%
COc1cccc(NC(=O)C(=O)NCCc2csc(-c3ccc(C(F)(F)F)cc3)n2)c1 | -54.5%
COc1cc(CNCCSc2nnnn2C)ccc1OCc1ccc(F)cc1 | 8.9%
CC1=C(C(=O)N2CCCCC2)C(c2ccc(Cl)cc2)n2c(nc3ccccc32)N1 (stereo unspecified) | -5.7%

Next part:
SMILES | miR-21 reporter
CCOC(=O)c1ccccc1NC(=O)c1c(C)oc2ncnc(N3CCOCC3)c12 | 25.5%
COc1cc(NC(=O)CC(C)S(=O)(=O)c2cc3c4c(c2)CCN4C(=O)CC3)cc(OC)c1 (stereo unspecified) | 0.0%
CCc1c(C)sc2c1CCN(Cc1ccccc1F)C2c1ccccc1 (stereo unspecified) | ?
COc1ccccc1Cn1cc(C(=O)c2ccc(C)cc2)c(=O)c2cc(F)cc(F)c21 | -1.0%
Cc1cc(C)cc(NC(=O)CSc2oc(-c3ccccc3)nc2S(=O)(=O)c2ccc(Cl)cc2)c1 | 2.3%
CCN1CCN(C(c2ccc(SC)cc2)c2c(O)cc(C)n(CCOC)c2=O)CC1 (stereo unspecified) | -1.1%
CCn1c(CNC(=O)c2ccc(OC)cc2)nnc1SCC(=O)Nc1cc(C)ccc1C | 2.1%
Cc1c(C(=O)N2CCC(C)CC2)c(S(=O)(=O)N2CCN(c3ccc(Cl)cc3)CC2)c(C)n1C | -6.3%
Cc1c(C(=O)Nc2ccccc2F)sc2ncnc(N(C)C3CCCCC3)c12 | 4.3%
COc1ccc(S(=O)(=O)N(C(=O)c2ccncc2)c2ccc3oc(C)c(C(C)=O)c3c2)cc1 | ?
CCCS(=O)(=O)Nc1cc(-c2cn3ccc(C)cc3n2)ccc1C | ?
CCOC(=O)c1ccc(N2C(=O)c3n[nH]c(-c4ccco4)c3C2c2ccc(OC)cc2OC)cc1 (stereo unspecified) | ?
COc1cccc(-c2nc(SCC(=O)NC3CCCC3)c(-c3ccccc3)[nH]2)c1 | 21.3%
CCOc1cccc(C2c3c(oc4ccc(F)cc4c3=O)C(=O)N2c2cc(C)ccn2)c1 (stereo unspecified) | -12.3%
CCN(C(=O)c1cc(S(=O)(=O)N2CCCC2)cn1C)c1ccc(OC)cc1 | 3.1%
COC(=O)Cn1c(=O)c2c(nc3n2CCN3c2cccc(C)c2)n(C)c1=O | -4.7%
CCOC(=O)CSc1nc2c(sc3ccccc32)c(=O)n1Cc1ccc(OC)cc1 | -1.1%
COc1ccc(C(=O)N2CC(=O)Nc3ccc(C)cc3C2c2ccccc2)cc1OC (stereo unspecified) | -6.3%
COc1ccccc1C(=O)NCCn1cc(SCC(=O)Nc2ccccc2F)c2ccccc21 | ?
CCC(=O)N1c2ccccc2CC1C(=O)NCCc1ccccc1Cl (stereo unspecified) | 0.1%
Cc1ccc(Oc2coc3cc(OCC(=O)NC4CCCCC4)ccc3c2=O)cc1 | -0.2%
CCCCNC(=O)CSc1nc2n[nH]c(C)c2c(=N)n1-c1ccccc1CC | -16.1%
COc1ccc(NC(=O)c2sc3nc(C)c(C(=O)Nc4ccc(C)cc4C)c(-c4sccc4C)c3c2N)cc1 | -3.3%
Cc1cc2c(cc3c(SCc4nc(-c5ccccc5)oc4C)nnc(C)n32)o1 | -0.3%
Cc1ccc2oc(=O)c3cnn(CC(=O)N(C)c4ccc(F)cc4)c3c2c1 | -2.3%

The results go on.
SMILES | miR-21 reporter
Cc1ccc(-n2ncc3c(=O)n(Cc4cccc(C(F)(F)F)c4)cnc32)cc1C | 5.4%
CCOC(=O)c1cccc(NC(=O)C2CCN(S(=O)(=O)c3c(C)noc3/C=C/c3ccc(C)cc3)CC2)c1 | ?
O=C(C1CCC(Cn2c(=O)c3sccc3n(Cc3ccccc3F)c2=O)CC1)N1CCCCC1 (stereo unspecified) | -1.8%
CCOc1ccc(C(c2c(O)cc(C)n(CCOC)c2=O)N2CCN(c3ccccc3F)CC2)cc1 (stereo unspecified) | -5.2%
COc1ccc(NC(=O)c2ccco2)cc1NC(=O)COc1cc(C)cc(C)c1 | 8.1%
CCCN(CCC)C(=O)Cn1c(=O)n(-c2ccc(Cl)c(Cl)c2)c(=O)c2c(C)c(C(=O)N(C)C)sc21 | -1.6%
COc1cccc(C(=O)Nc2cccc(NC(=O)c3ccc(Cl)cc3Cl)c2)c1 | 5.7%
Cc1ccc(-c2nnn(CC(=O)N(CC(=O)NCCC(C)C)c3ccc(F)cc3)n2)cc1 | 3.8%
COc1ccc(Cl)cc1NC(=O)Cn1c(=O)n(-c2ccc(C)cc2)c(=O)c2ccc(C(=O)NCc3ccccc3Cl)cc21 | -5.4%
Cc1cc(C)c2c(CC(=O)N(Cc3ccc(Cl)cc3)Cc3ccco3)coc2c1 | 10.4%
Cc1cccc(Cn2c(COc3ccc(Cl)cc3)nc3ccccc32)c1 | -4.9%
O=C(Cn1c(-c2cccs2)cc2cc(F)ccc21)NCCCN1CCN(c2ccc(F)cc2)CC1 | -5.9%
Cc1ccc(NC(=O)C(=O)NCC(c2cccnc2)N2CCN(Cc3ccccc3)CC2)cc1C (stereo unspecified) | -31.8%
Cc1ccccc1-c1noc(-c2cccnc2N(C)Cc2ccc(Cl)cc2)n1 | 0.0%
Cc1ccc(C)c(NC(=O)CCc2c(C)n(C)c3cc(-c4ccccc4C)nn3c2=O)c1 | -3.5%
CCc1cccc(C)c1NC(=O)Cn1c(=O)n(-c2ccc(C)cc2)c(=O)c2c1cnn2C | 0.7%
COc1ccc(C)cc1NC(=O)c1cc(S(=O)(=O)N2CCCCC2)c[nH]1 | -8.5%
CCC(C(=O)O)n1nnc(-c2ccc(OCc3ccccc3)c(OC)c2)n1 (stereo unspecified) | -4.2%
CC(=O)Nc1ccccc1-c1nc2ccccc2n(C(C)C(=O)Nc2cccc(C)c2C)c1=O (stereo unspecified) | -19.9%
CCOC(=O)C(C)Sc1nnc2cc(C)c3ccccc3n12 (stereo unspecified) | -8.3%
CC(C)c1ccc(-c2nnc3n(CCc4ccccc4)c(=O)c4ccccc4n23)cc1 | -2.6%
COc1ccc(CNC(=O)c2cc3c(=O)n4cccc(C)c4nc3s2)cc1 | -1.0%
CCc1ccc(-c2nc(CS(=O)CC(=O)NCc3ccc(F)cc3)c(C)o2)cc1 (stereo unspecified) | 3.0%
CCOC(=O)C1CCCN(c2c(C(=O)c3ccc(C)cc3)cnc3ccc(OCC)cc23)C1 (stereo unspecified) | 12.3%
COc1ccc(C2CC(=O)Nc3c2c(=O)[nH]c2nc4ccccc4n32)cc1OC (stereo unspecified) | -6.9%

3 of the entries above in order of their number in miR-21 reporter, falling:
| SMILES | miR-21 reporter |
| --- | --- |
| O=C(CC1C(=O)N(c2ccc(F)cc2)C(=O)N1Cc1ccc2c(c1)OCO2)Nc1ccc(F)cc1 (stereo unspecified) | 2.1% |
| COc1ccccc1Cn1cc(C(=O)c2ccc(C)cc2)c(=O)c2cc(F)cc(F)c21 | -1.0% |
| Cc1ccc2oc(=O)c3cnn(CC(=O)N(C)c4ccc(F)cc4)c3c2c1 | -2.3% |

(continued)
SMILES | miR-21 reporter
COc1ccc(CNC(=O)Cn2c(=O)nc(-c3ccccc3F)c3cc(Cl)ccc32)cc1 | -0.5%
Cc1ccc(OCC(=O)N(Cc2ccc(Cl)cc2)Cc2ccco2)cc1C | -8.5%
Cc1[nH]c2ccc(F)cc2c1CCNC(=O)c1cc2cc(Cl)ccc2oc1=O | -3.4%
CCc1c(C)sc2c1CCN(Cc1cccc(F)c1)C2c1ccccc1 (stereo unspecified) | ?
COc1ccccc1CNS(=O)(=O)c1cnc(N)nc1 | 8.9%
COc1cccc(C2=CC(c3cc(Br)ccc3F)n3nnnc3N2)c1 (stereo unspecified) | 19.9%
Cc1cc(F)ccc1S(=O)(=O)Nc1cc2c(C(=O)O)c(C)oc2c2ccccc12 | -4.0%
Cc1cccc(N2CCN(C(=O)c3cnn(-c4ccc(F)cc4F)c3C3CCN(C(=O)OC(C)(C)C)CC3)CC2)c1C | -3.0%
CCc1cccc(NS(=O)(=O)c2ccc3c(c2)N(CC(=O)OC)C(=O)CS3)c1 | 7.4%
COc1ccc(NC(=O)CN2C(=O)COc3ccc(S(=O)(=O)Nc4ccccc4)cc32)cc1OC | -1.6%
COc1ccc(-c2noc(CN(C(=O)C(C)Oc3ccc(C)cc3)C(C)C)n2)cc1 (stereo unspecified) | -0.4%
Cc1ccc(CNc2nc3ccc(Cl)cc3n3cnnc23)cc1 | -21.1%
CCCCNC(=O)c1ccc2c(c1)ncn2-c1cc(OC)ccc1OC | -6.0%
Cc1cc(C)cc(NC(=O)CSc2nc3nccnc3c(=O)n2CCc2c[nH]c3ccccc23)c1 | -2.3%
CC(NC(=O)c1ccc2c(c1)CCN2S(=O)(=O)c1ccc(Cl)cc1)c1ccccc1 (stereo unspecified) | 12.8%
Cc1ccc(NC(=O)CCc2nc(-c3ccccc3F)no2)c(C)c1 | -14.0%
CCc1cccc(C)c1NC(=O)c1cc(S(=O)(=O)N2CCN(c3ccccc3)CC2)ccc1F | 0.6%
COc1ccc(OC)c(S(=O)(=O)Nc2cc3c(C(C)=O)c(C)oc3c3ccccc23)c1 | -16.5%
CN(Cc1ccccc1)C(C(=O)NC1CCCCC1)c1ccc(Cl)cc1 (stereo unspecified) | -1.0%
CCOC(=O)c1cccc(NS(=O)(=O)c2ccc(-c3coc(C)n3)cc2)c1 | 9.3%
O=C(CSc1oc(-c2ccco2)nc1S(=O)(=O)c1ccc(Cl)cc1)c1ccccc1 | 6.4%
CCOc1ccc(CNC(=O)c2cc3ccccn3n2)cc1 | -65.2%
CCN(CC)c1ccc(C(=O)NCc2ccc3c(c2)CCN3C(=O)c2ccccc2)cc1 | 22.8%
CCCn1c(=N)c(C(=O)NCc2ccccc2)cc2c(=O)n3cccc(C)c3nc21 | 2.8%
O=C(Nc1ccc2nc(SCC(=O)N3CCOCC3)sc2c1)c1cccc(Br)c1 | ?
COc1ccccc1OCC(=O)Nc1nc(-c2ccc(Br)cc2)ns1 | -5.1%
Cc1cccc(NC(=O)CSC2=Nc3ccccc3C3=NC(CCC(=O)NCc4ccc(F)cc4)C(=O)N23)c1 (stereo unspecified) | 0.3%
NC(=O)c1ccccc1NC(=O)C1CCCN(c2ncnc3onc(-c4ccc(F)cc4)c23)C1 (stereo unspecified) | 2.1%

In another format: entries from further up.
smiles,miR-21 reporter
Cc1[nH]c2ccc(F)cc2c1CCNC(=O)c1cc2cc(Cl)ccc2oc1=O,-3.4%
CCc1c(C)sc2c1CCN(Cc1cccc(F)c1)C2c1ccccc1 (stereo unspecified),?
COc1ccccc1CNS(=O)(=O)c1cnc(N)nc1,8.9%
COc1cccc(C2=CC(c3cc(Br)ccc3F)n3nnnc3N2)c1 (stereo unspecified),19.9%
Cc1cc(F)ccc1S(=O)(=O)Nc1cc2c(C(=O)O)c(C)oc2c2ccccc12,-4.0%
Cc1cccc(N2CCN(C(=O)c3cnn(-c4ccc(F)cc4F)c3C3CCN(C(=O)OC(C)(C)C)CC3)CC2)c1C,-3.0%
CCc1cccc(NS(=O)(=O)c2ccc3c(c2)N(CC(=O)OC)C(=O)CS3)c1,7.4%
